Resorufin autofl – qHTS Assay for Spectroscopic Profiling in Resorufin Spectral Region; Compound fluorescence, resorufin region 547/598 nm, buffer; active compounds read high; max dye-equivalent concentration, M; 0.04% of 59,000 active; AID 588, 2007; active = above 10 nM dye equivalent; inconclusive = 1 to 10 nM; inactive = 1 nM or less; a few of its hits are not listed in these tables; further: highest value over a series up to 38 µM
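Dye-equivalent concentration values derive from comparing each well's 547/598 nm fluorescence against resorufin standards included on every plate. Incubation was 15 min at room temperature in 100 mM Tris, pH 8.0.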
AID923 – qHTS Assay for Allosteric/Competitive Inhibitors of Caspase-1: Spectroscopic Profiling in AFC Spectral Region. compound fluorescence, AFC spectral region (405/520 nm); almost no hit is shown here. Potency, µM (top dose mostly 57.5 µM), inactives show top-dose fluorescence increase, actives largely listed as activators. 1.1% of 75,000 active. AID 923, 2007; active means well fitted activation curve with a large enough effect; inconclusive means small, poorly fitted or top-dose-only effect;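 further: potency means the concentration at half of the fitted maximal effect; 0% is about no effect; scaled to a free AFC standard on each plate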
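Titrations up to 57 uM read every 20 sec for 3 min (405/520 nm) with 50 nM caspase 1 and 5 uM Ac-WEHD-AFC, pH 7.5 HEPES buffer. Fluorescence-vs-time intercept gave baseline, scaled against on-plate AFC standard.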
A488 autofl – qHTS Assay for Spectroscopic Profiling in A488 Spectral Region; compound autofluorescence, A488 spectral region, dye equivalency; active compounds read high; max dye equivalency, M; 0.1% of 59,000 active; active = above 10 nM dye equivalent; inconclusive = 1 to 10 nM; inactive = 1 nM or less; about half of its hits are not listed in these tables;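 further: highest value over a series up to 38 µM; compound alone in buffer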
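Intrinsic compound fluorescence is measured in 100 mM Tris buffer at pH 8.0 following 15 min incubation at room temperature. Intensities at 480 nm excitation/540 nm emission are calibrated to an on-plate A488 concentration series, giving dye-equivalent concentrations.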
TSHR agonist – qHTS Assay for Agonists of the Thyroid Stimulating Hormone Receptor | HEK293-CNG-TSHR cells (CNG channel as cAMP sensor), membrane potential dye, cAMP | Thyrotropin receptor (Homo sapiens), P16473 | Potency, µM (series often up to 57.1 µM), for inactives: top-dose activation, hits mostly activators | 0.48% of 73,000 active | AID 926, 2007; active = well fitted activation curve of enough size with the parental cells flat; inconclusive = any curve in the parental cells; inactive = parental cells flat and receptor cells flat or falling; further: potency means the concentration at half of the fitted maximal effect; % of control where 0% means no effect; weak receptor curves with flat parental cells got no call and are not listed
Target sequence (P16473 whole entry, looked up): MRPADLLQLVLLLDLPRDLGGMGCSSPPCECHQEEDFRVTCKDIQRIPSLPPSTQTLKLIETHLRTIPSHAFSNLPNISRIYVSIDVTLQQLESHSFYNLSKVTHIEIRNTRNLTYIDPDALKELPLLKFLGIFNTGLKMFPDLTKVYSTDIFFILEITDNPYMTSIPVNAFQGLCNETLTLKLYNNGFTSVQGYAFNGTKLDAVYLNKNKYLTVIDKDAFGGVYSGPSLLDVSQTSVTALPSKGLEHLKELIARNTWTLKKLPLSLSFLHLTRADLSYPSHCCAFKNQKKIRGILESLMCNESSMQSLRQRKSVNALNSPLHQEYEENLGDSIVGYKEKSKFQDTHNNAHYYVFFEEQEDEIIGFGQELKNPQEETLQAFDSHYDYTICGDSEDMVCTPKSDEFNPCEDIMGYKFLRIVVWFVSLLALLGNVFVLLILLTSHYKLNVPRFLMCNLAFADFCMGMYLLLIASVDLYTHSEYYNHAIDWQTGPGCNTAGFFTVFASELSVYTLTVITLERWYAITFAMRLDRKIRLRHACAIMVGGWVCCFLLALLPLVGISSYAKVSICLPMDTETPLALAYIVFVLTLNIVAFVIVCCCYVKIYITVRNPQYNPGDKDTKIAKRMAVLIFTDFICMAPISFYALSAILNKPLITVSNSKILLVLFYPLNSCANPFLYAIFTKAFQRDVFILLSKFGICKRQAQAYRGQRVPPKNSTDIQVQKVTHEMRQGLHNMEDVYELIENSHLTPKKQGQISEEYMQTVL
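cAMP rise detected as CNG-channel membrane depolarization by fluorescent dye (emission 590 nm), 30 min after compound, following 60 min dye loading containing 100 uM RO 20-1724 at room temperature. Cells: TSHR/CNG HEK 293, with parental CNG HEK 293 as control.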
A647 fluor – qHTS Assay for Spectroscopic Profiling in A647 Spectral Region | AID 592, 2007 | 59,000 tested, under 10 active | Compound fluorescence, A647 channel (570/671 nm), Tris buffer | max dye-equivalent concentration, M; active means above 1 µM dye equivalent; inconclusive means 0.1 to 1 µM; inactive means 0.1 µM or less;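 further: values scaled relative to a standard on each plate; highest value over a series up to 38 µM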
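Spectral profiling of library compounds in pH 8.0 Tris: 15 min room-temperature incubation, single ex/em pair (570/671 nm), response normalized to Alexa 647 equivalents.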
* hit, by the source's call; i = inactive; u = inconclusive; x = no result given; [ ] = another dose, or the depositor's remark.

SMILES	TSHR agonist	A647 fluor	A488 autofl	Resorufin autofl	AID923
CC(=O)Nc1ccc(S(=O)(=O)N2CCN(S(=O)(=O)N3CCCCCC3)CC2)cc1	3%	6e-08	i	i	-0.5%
O=C(CSc1nnc2ccccn12)N1CCc2ccccc2C1	-5%	6.1e-08	i	i	-1.6%
Nc1ccc(C2CCCc3nonc32)c2nonc12 (centres undefined)	-2%	x	x	x	3.3%
Cc1nc(SCC(=O)N(C)Cc2ccco2)c2c(C)c(C)sc2n1	-2%	2.3e-09	i	i	0.2%
O=C(Nc1nc(-c2ccc(S(=O)(=O)N3CCCC3)cc2)cs1)C1COc2ccccc2O1 (centres undefined)	u	4.1e-09	i	i	-0.2%
CCN(CC)C(=O)CN(C)S(=O)(=O)c1cccc2nsnc12	4%	1e-09	i	i	0.7%
CCOC(=O)c1c(NC(=O)Cn2c(C)nc3ccccc32)sc2c1CCC2	25µM*	1e-09	i	i	-1.5%
O=C(CSc1nnc(-c2ccc3c(c2)OCCO3)o1)NC1CCCCC1	19%	1.9e-08	i	i	-2.0%
CCCc1cc(=O)n2[nH]c(NCc3ccc(Cl)cc3Cl)nc2n1	u	1.8e-08	i	i	0.3%
CCCC1CCC(C(=O)Nn2cnc3ccccc3c2=O)CC1 (centres undefined)	11%	1e-09	i	i	0.8%
CC(=O)Nc1ccccc1-c1nc2ccc(C(=O)N3CCN(c4ccccc4)CC3)cc2[nH]c1=O	0%	x	x	x	1.9%
CC(C)(C)NC(=O)C(c1ccncc1)N(C(=O)CNC(=O)c1ccco1)c1ccc2c(c1)OCO2 (centres undefined)	-1%	4e-08	i	i	1.1%
O=C(c1ccco1)N1CCC2(CCCN(c3ncccn3)C2)CC1	-1%	1e-09	i	i	1.1%
CC(C)(C)CC(C)(C)c1ccc(O)c(C[N+](C)(C)[O-])c1	2%[11.4 µM]	1.4e-09	i	i	6.3%[11.5 µM]
CC1=NC2(CCCc3c2no[n+]3[O-])N(O)C1(C)C (centres undefined)	u	x	x	x	-1.1%
CCN1CCN(c2cc(C)c3cc(NC(=O)c4cnccn4)ccc3n2)CC1	-3%	x	x	x	0.7%
Brc1ccc(CSc2ncnc3nc[nH]c23)cc1	-6%	x	x	x	-1.2%
COC(=O)C1CCN(C(=O)COc2ccc(Cl)cc2)CC1	0%	1e-09	i	i	1.2%
Cc1ccccc1NC(=O)C1CC(=O)N(c2ccccc2F)C1 (centres undefined)	-24%	3.1e-08	i	i	0.5%
Cc1ccc(C)c(CN2C(=O)C(C)Oc3ccc(C)cc32)c1 (centres undefined)	x	1.4e-08	i	i	2.4%
Cc1cccc2nc(=S)n(C(=O)c3ccco3)n12	-6%	6.5e-09	i	i	1.3%
CSc1ccc(NC(=O)CC(C)=O)cc1	18%	x	x	x	1.0%
CN(C)CCCN1C(=O)C(O)=C(C(=O)c2cccs2)C1c1ccccn1 (centres undefined)	-9%	1e-09	i	i	2.8%
CC(=O)Nc1c(O)[nH]c2ccccc12	-2%	1e-09	i	i	1.1%
OCCN(Cc1ccccc1)CC1CC=CCC1 (centres undefined)	15%[11.4 µM]	x	x	x	0.9%
CN1CCN(CCCNC(=O)c2cn(C3CCCCC3)c(=O)c3c2c2ccccc2n3C)CC1	3%	2.7e-09	i	i	-0.5%
C=CCOC(=O)C(C(C)=O)C(NC(=O)OC)c1ccco1 (centres undefined)	-5%[11.4 µM]	x	x	x	0.0%[11.5 µM]
NS(=O)(=O)c1ccc(NC(=O)CSc2nnc(Cc3cccs3)n2-c2ccccc2)cc1	6%	7.4e-09	i	i	-1.7%
CN(C(=O)COC(=O)c1ccccc1Nc1ccccc1)C1CCS(=O)(=O)C1 (centres undefined)	-8%	2e-08	i	i	-1.4%
Cc1ccc(CNC(=O)C2CNc3cc(C)ccc3O2)cc1 (centres undefined)	-9%	2.9e-08	i	i	-0.1%
O=S(=O)(Nc1ccc2c(c1)OCCO2)c1cnc[nH]1	-3%	1e-09	i	i	0.9%
Cc1c(C)[n+](=O)c(-c2cccs2)c(C)n1[O-]	x	7.1e-09	i	i	0.3%
Cc1ccccc1-c1nccc(NCc2cccnc2)n1	12%	1e-09	i	i	0.7%
c1cc2c(cc1C1CCCN1)OCCCO2 (centres undefined)	3%	5.9e-09	i	i	0.6%
COc1ccc(N(CC(=O)NC2CCCCCC2)S(=O)(=O)c2c(C)nn(C)c2C)cc1	u	6.3e-09	i	i	-3.0%
COC(=O)c1ccc(CSc2nc3ccccc3c(=O)n2-c2ccc(OC)c(OC)c2)o1	14%	1.7e-08	i	i	1.3%
O=C(NCCCn1ccnc1)Nc1ccc(Cl)c(Cl)c1	-6%	1e-09	i	i	-0.2%
COc1ccc(NC(=O)C2CCC(=O)N2)cc1 (centres undefined)	-3%	x	x	x	2.1%
CCOCCCNC(=O)c1c(C)[nH]c(C(=O)OCC)c1C	2%	1.4e-08	i	i	-1.1%
COc1cc(-c2noc(-c3ccco3)n2)cc(OC)c1OC	u	4.3e-09	i	i	0.9%
Brc1ccc2ncnc(Nc3ccc(N4CCOCC4)cc3)c2c1	-28%	x	x	x	0.2%
CCCn1c(SCc2ccccn2)nc2c1c(=O)n(C)c(=O)n2C	5%	1.6e-08	i	i	1.0%
CC1CCN(C(=O)CN2C(=O)c3ccccc3S2(=O)=O)CC1	3%	1.3e-09	i	i	1.5%
N#Cc1ccc(OCCN2C(=O)NC3(CCSC3)C2=O)cc1 (centres undefined)	8%	3.5e-08	i	i	0.2%
CCC(C(=O)N1CCOCC1)n1c(C(=O)OC)cc2occc21 (centres undefined)	4%[11.4 µM]	1e-09	i	i	-1.8%
CC1CCCC(NC(=O)COC(=O)c2ccc(S(=O)(=O)N3CCOCC3)cc2)C1C (centres undefined)	8%	4.9e-08	i	i	-0.7%
CCOc1ccc(C(C)=O)cc1CN1C(=O)NC2(CCCCC2C)C1=O (centres undefined)	u	1.6e-08	i	i	-1.5%
COC(=O)Nc1ccc(S(=O)(=O)N(C)CC(F)(F)C(F)F)cc1	-6%	4e-08	i	i	-0.2%
CCC(C)(c1ccc(C(=O)OC)s1)c1ccc(C(=O)OC)s1	u	x	x	x	0.8%
COc1cccc(-n2c(Cc3cc(=O)[nH]c(=O)[nH]3)nnc2SCC(=O)N2CCCCCC2)c1	-13%	x	x	x	-0.3%
CC(=O)c1cn(CC(=O)NCc2ccc3c(c2)OCO3)c2ccccc12	15%	2.1e-08	i	i	-0.1%
CCOc1ccccc1C(=O)N1CCN(c2cccc(Cl)c2)CC1	u	5.6e-09	i	i	-0.8%
c1ccc(Cc2ccc(OCCn3cncn3)cc2)cc1	13%	4.2e-08	i	i	0.7%
CC(C)Sc1nnc(Nc2ccccc2)s1	-1%[11.4 µM]	1.8e-08	i	i	-1.5%
CCN(CCNC(=O)C1CCN(c2nnc(-n3cccc3)s2)CC1)c1ccccc1	-3%	x	x	x	-2.6%
CCOC(=O)C1(C)NC(c2ccccc2F)C2C(=O)N(c3cccc(C(C)=O)c3)C(=O)C21 (centres undefined)	9%	1e-09	i	i	4.3%
CC(C)c1ccc(C(O)c2cnc(C(C)C)n2C)cc1 (centres undefined)	2%	x	x	x	-2.6%
Cc1cc2cc(CCNC(=O)c3c(-c4ccccc4Cl)noc3C)c(=O)[nH]c2cc1C	7%	x	x	x	-2.9%
O=c1c(N2CCOCC2)nsn1Cc1ccccc1	-3%	2.6e-08	i	i	0.9%
Cc1cc(C)cc(-n2ccnc2SCC(=O)Nc2ccc3c(c2)OCCO3)c1	u	2.1e-08	i	i	-0.1%

(cont.)
SMILES	TSHR agonist	A647 fluor	A488 autofl	Resorufin autofl	AID923
O=C(NCCCN1CCOCC1)c1cc(-c2ccc(F)cc2)on1	x	2.7e-08	i	i	-1.0%
CCC1OCCC=CC1C (centres undefined)	-2%[11.4 µM]	x	x	x	0.3%[11.5 µM]
CCN(CC)CP(=O)(c1ccccc1)c1ccccc1	8%	x	x	x	0.8%
O=S(=O)(Nc1cccnc1)c1cccc(C(F)(F)F)c1	x	3e-09	i	i	2.9%
Cn1c(SC/C=C/c2ccccc2)nnc1-c1ccco1	u	3.9e-08	i	i	0.2%
CCCOc1ccc(-c2nnc(-c3ccncc3)o2)cc1	7%	5.9e-08	i	i	1.2%
COCC(C)NS(=O)(=O)c1ccc(NC(=O)C(Cc2ccccc2)NC(N)=O)cc1 (centres undefined)	3%	1e-09	i	i	-0.1%
CCOc1ccc(-c2nnc3ccc(SCc4ccc(C(=O)OC)o4)nn23)cc1	7%[11.4 µM]	1e-09	i	i	0.2%
O=C(NC1CCCCC1)N1CCC(n2c(=O)[nH]c3ccccc32)CC1	-1%	x	x	x	-1.7%
Cc1cc(NC(=O)CSc2nnc(Cn3c(=O)sc4ccccc43)n2-c2ccccc2C)no1	15%	x	x	x	-2.4%
CCOC(=O)CCCCC(=O)c1[nH]c(=O)[nH]c1CN1CCOCC1	-13%	1e-09	i	i	-0.3%
CCC(=O)N1c2ccc(S(=O)(=O)CCC(=O)NC3CCCC3)cc2CC1C (centres undefined)	2%	3.6e-09	i	i	1.2%
O=C(NCc1ccco1)c1cccn2c(=O)c3cc(Br)ccc3nc12	4%	2.7e-08	i	i	18%
CCc1ccc(NC2CC(=O)N(c3ccc(OC)cc3OC)C2=O)cc1 (centres undefined)	-7%	3.7e-08	i	i	0.4%
COc1ccc(OC)c(/C=c2\sc3nc(-c4cccs4)nn3c2=O)c1	-7%	2.4e-09	u	i	2.5%
COc1ccc(CCNC(=O)CCN2C(=O)COc3ccc(C)cc32)cc1OC	1%	1e-09	i	i	-1.5%
CCc1ccccc1N1CC23C=CC(O2)C(C(=O)OCC(C)C)C3C1=O (centres undefined)	5%	x	x	x	1.9%
O=C1CC(N2CCN(c3ccc(F)cc3)CC2)C(=O)N1Cc1cccs1 (centres undefined)	-10%	1.4e-08	i	i	-0.2%
COc1ccccc1NC(=O)C1CCCN(S(=O)(=O)c2cnc[nH]2)C1 (centres undefined)	-12%	x	x	x	0.2%
CCCCn1c(SCC(=O)OC)nc2c1c(=O)n(C)c(=O)n2C	4%	4.2e-08	i	i	0.5%
O=C(Nc1ccccc1)OC[C@H](CN1CCCCC1)OC(=O)Nc1ccccc1	-14%[25.6 µM]	5.3e-08	i	i	-0.8%[25.7 µM]
Cc1ccccc1-c1nc(N2CCN(C)CC2)c2ccccc2n1	12%	3.2e-08	i	i	5.5%

Given with values under each structure: entries from further up
Values in the order: TSHR agonist | A647 fluor | A488 autofl | Resorufin autofl | AID923
- CCN(CC)CP(=O)(c1ccccc1)c1ccccc1
 : 8% | x | x | x | 0.8%
- O=S(=O)(Nc1cccnc1)c1cccc(C(F)(F)F)c1
 : x | 3e-09 | i | i | 2.9%
- Cn1c(SC/C=C/c2ccccc2)nnc1-c1ccco1
 : u | 3.9e-08 | i | i | 0.2%

Compound profiles (already shown). Values in the order: TSHR agonist	A647 fluor	A488 autofl	Resorufin autofl	AID923
CCC(C(=O)N1CCOCC1)n1c(C(=O)OC)cc2occc21 (centres undefined) is listed with 4%[11.4 µM]	1e-09	i	i	-1.8%
O=C(NCCCN1CCOCC1)c1cc(-c2ccc(F)cc2)on1 is listed with x	2.7e-08	i	i	-1.0%

Screening results deposited in PubChem BioAssay by National Center for Advancing Translational Sciences (NCATS).

Not all compounds are listed; the hit share may differ from the screen's.
